LmPK inhibitor – blocks Leishmania mexicana pyruvate kinase activity; Q27686; purified LmPK, Kinase-Glo ATP luminescence, 1 h; Potency, µM (titrated, usually from 57.5 µM), for inactives: at the highest dose activity change, negative = inhibition, actives largely listed as inhibitors; 290,000 compounds, 0.37% hits; AID 1721
Target sequence (Q27686 whole entry, looked up): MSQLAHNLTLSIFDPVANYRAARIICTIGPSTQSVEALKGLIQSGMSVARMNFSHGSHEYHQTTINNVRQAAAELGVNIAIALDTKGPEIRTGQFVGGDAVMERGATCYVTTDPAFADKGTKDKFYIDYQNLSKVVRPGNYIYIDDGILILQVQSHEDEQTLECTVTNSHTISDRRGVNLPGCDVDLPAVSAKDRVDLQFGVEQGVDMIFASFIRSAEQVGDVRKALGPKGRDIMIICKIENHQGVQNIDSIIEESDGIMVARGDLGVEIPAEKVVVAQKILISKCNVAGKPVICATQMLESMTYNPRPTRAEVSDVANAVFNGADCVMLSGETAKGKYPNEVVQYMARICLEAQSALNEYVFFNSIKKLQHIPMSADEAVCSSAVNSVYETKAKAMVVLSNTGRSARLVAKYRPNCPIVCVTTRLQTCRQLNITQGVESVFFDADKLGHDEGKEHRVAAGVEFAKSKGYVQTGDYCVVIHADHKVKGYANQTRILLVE
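qHTS format; LmPK 0.1 nM; substrates PEP 0.5 mM and ADP 0.1 mM. One-hour room-temperature incubation, then coupled luciferase luminescence; 0.5 nM enzyme wells mark activation.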
AmpC detergent – blocks E. coli AmpC beta-lactamase in detergent assay | P00811 | AmpC hydrolysis of nitrocefin, absorbance 480 nm, 0.01% Triton | Potency, µM (doses to about 114 µM), for inactives: top-dose activity change, negative = inhibition, usual class: inhibitors | 370,000 compounds, 0.041% hits | AID 485294;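 note: 0% = no-compound wells and -100% = no-enzyme wells; nearly all actives have a fitted effect of over 25% in size; some results filed as inactive show a strong effect at the top dose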
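20 mM phosphate pH 7.0 + 0.01% (detergent screen) or 0.0001% Triton X-100; 5.3 nM AmpC reagent; cpd preinc 15 min RT; nitrocefin (800 uM stock) to start; A480 q20 s × 4 min; Activity was normalised to no-enzyme and no-compound control wells.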
Tb PYK inh – inhibitors of Trypanosoma brucei pyruvate kinase | Potency, µM (doses to about 76.8 µM), for the others: at the top dose activity, negative = inhibition, most hits filed as inhibitors | AID 624173 | 410,000 compounds, 0.12% hits | TbPYK enzyme, Kinase-Glo Plus ATP luminescence, 45 min; note: nearly all actives have a fitted effect of over 50% in size
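Screened from lowest to highest concentration, compounds were pinned into TbPYK/substrate mixtures, and ADP (130 uM final) was added. Plates sat at room temperature for 45 min prior to Kinase-Glo Plus detection by luminescence.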
AmpC inh no detg – blocks E. coli AmpC beta-lactamase in detergent-free assay; P00811; AmpC nitrocefin hydrolysis, absorbance 480 nm, 0.0001% Triton; Potency, µM (highest dose often 57.1 µM), for inactives: at the highest dose activity change, negative = inhibition, hits mostly inhibitors; 330,000 compounds, 0.52% hits; AID 485341;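 note: plate controls were no compound for no effect and no enzyme for full effect; nearly all actives have a fitted effect of over 20% in size; some results filed as inactive show a strong effect at the top dose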
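20 mM phosphate pH 7.0 + 0.01% (detergent screen) or 0.0001% Triton X-100; 5.3 nM AmpC reagent; cpd preinc 15 min RT; nitrocefin (800 uM stock) to start; A480 q20 s × 4 min; Activity was normalised to no-enzyme and no-compound control wells.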
* = called active by the depositor; · = not tested or not shown; & = joins results of further samples; [ ] = remark or other dose. Calls come from the whole dose curve; as a rule, active = well fitted curve in the direction sought with a large enough effect; inconclusive = small, poorly fitted or top-dose-only effect, or another doubt; inactive = no such curve, though single readings can be large; an effect the other way counts as inactive or inconclusive. Unless noted, % is set by controls: 0 for no effect and ±100 for the full control effect; potency is the fitted concentration of half-maximal effect. These rows are one share of the data; rates above refer to the full screens.

Letters: A = LmPK inhibitor; B = AmpC detergent; C = Tb PYK inh; D = AmpC inh no detg
[1] O=S(=O)(c1ccc(F)cc1)n1cnc2ccccc21
  A: -0.2%	B: 4.9%	C: 1.4%	D: -15.8%
[2] O=C(O)[C@@H]1CCCC[C@@H]1C(=O)N1CCc2ccccc2C1CN1C(=O)c2ccccc2C1=O (some centres not stated)
  A: 2.5%	B: -10.1%	C: 0.5%	D: -6.5%
[3] OCCN(CCO)c1nc(N2CCCCC2)c2nc(N(CCO)CCO)nc(N3CCCCC3)c2n1
  A: -0.1%	B: -13.1%	C: -13.3%&1.5%	D: 92.5%[activator]
[4] N#Cc1ccc(OCC(O)CN2CCC(C(O)(c3ccccc3)c3ccccc3)CC2)cc1 (configuration not stated)
  A: -1.4%	B: -18.0%	C: 2.4%	D: 47.8%
[5] NC1C2CN(c3nc4c(cc3F)c(=O)c(C(=O)O)cn4-c3ccc(F)cc3F)CC12 (configuration not stated)
  A: -5.1%	B: -1.9%	C: 0.3%&-5.7%	D: -14.5%
[6] CN(C)c1ccnc2sc(C(N)=O)c(N)c12
  A: -3.2%	B: -12.6%	C: -7.3%	D: -14.1%
[7] CN1CCN2c3ncccc3Cc3ccccc3C2C1 (configuration not stated)
  A: ·	B: ·	C: -10.1%&-3.5%	D: ·
[8] N#Cc1c(-c2ccc(Cl)cc2)c(-c2ccc(Cl)cc2)nn(CCO)c1=O
  A: ·	B: ·	C: -2.9%	D: ·
[9] CN1Cc2c(N)cccc2C(c2ccccc2)C1 (configuration not stated)
  A: 1.0%	B: -6.2%	C: 0.3%&0.5%&2.2%	D: -44.3%
[10] C[C@@H](Cc1ccc(O)cc1)NC[C@@H](O)c1cc(O)cc(O)c1
  A: ·	B: ·	C: -8.4%	D: ·
[11] Cc1nc2ccccc2c(-c2ccccc2)c1CC(=O)O
  A: -2.2%	B: -2.1%	C: -1.2%	D: -5.3%
[12] COc1c(N2C[C@@H]3CCCN[C@H]3C2)c(F)cc2c(=O)c(C(=O)O)cn(C3CC3)c12
  A: ·	B: ·	C: 1.8%&2.4%	D: ·
[13] Cn1c(=O)n(C)c2cc(N3CCCCC3)c(NC(=O)c3ccccc3)cc21
  A: 3.8%	B: 1.5%	C: 5.3%	D: -0.9%
[14] O=C(O)/C=C/C(=O)O
  A: ·	B: ·	C: 2.0%&0.0%	D: -4.9%

From compound 7 as far as 14, as listed above:
Letters: A = LmPK inhibitor; B = AmpC detergent; C = Tb PYK inh; D = AmpC inh no detg
[7] CN1CCN2c3ncccc3Cc3ccccc3C2C1 (configuration not stated)
  A: ·	B: ·	C: -10.1%&-3.5%	D: ·
[8] N#Cc1c(-c2ccc(Cl)cc2)c(-c2ccc(Cl)cc2)nn(CCO)c1=O
  A: ·	B: ·	C: -2.9%	D: ·
[9] CN1Cc2c(N)cccc2C(c2ccccc2)C1 (configuration not stated)
  A: 1.0%	B: -6.2%	C: 0.3%&0.5%&2.2%	D: -44.3%
[10] C[C@@H](Cc1ccc(O)cc1)NC[C@@H](O)c1cc(O)cc(O)c1
  A: ·	B: ·	C: -8.4%	D: ·
[11] Cc1nc2ccccc2c(-c2ccccc2)c1CC(=O)O
  A: -2.2%	B: -2.1%	C: -1.2%	D: -5.3%
[12] COc1c(N2C[C@@H]3CCCN[C@H]3C2)c(F)cc2c(=O)c(C(=O)O)cn(C3CC3)c12
  A: ·	B: ·	C: 1.8%&2.4%	D: ·
[13] Cn1c(=O)n(C)c2cc(N3CCCCC3)c(NC(=O)c3ccccc3)cc21
  A: 3.8%	B: 1.5%	C: 5.3%	D: -0.9%
[14] O=C(O)/C=C/C(=O)O
  A: ·	B: ·	C: 2.0%&0.0%	D: -4.9%

High-throughput results: PubChem BioAssay, National Center for Advancing Translational Sciences (NCATS)
